# Source: PubChem BioAssay (National Center for Advancing Translational Sciences (NCATS))
# PMP22 txn = Cell-based coincidence reporter assay to measure PMP22 gene transcription in S16 Pmp22-F2sN cells - Primary screen; Potency, µM (highest dose often 57.5 µM), inactives show top-dose activity change, negative = inhibition, hits mostly inhibitors; S16 Pmp22-F2sN Schwann cells (luciferase reporters placed in the Pmp22 gene), FLuc/NLuc coincidence luminescence, 24 h; actives 2% (n = 43,000); active = clear falling dose curves in both reporters; inconclusive = both reporters move, but less clearly or upward; inactive = either reporter flat; the % is the NLuc reporter signal; also: % is scaled to controls: 0 for no effect and ±100 for the full control effect; some results filed as inactive show a strong effect at the top dose
#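 S16(c9) Schwann cells with FLuc/NLuc coincidence reporter in the Pmp22 3' UTR; compounds pin-transferred, 24 h at 37C. Dual-luciferase read: FLuc first, then NLuc after Stop&Glo, each 10 min at room temperature.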
# HTT promoter inh = Primary qHTS for Identification of Small Molecule Inhibitors of Huntingtin Promoter Activity | HEK293 HTT promoter firefly luciferase reporter (activity 0% = vehicle and -100% = no light), 24 h | Potency, µM (titrated, usually from 57.5 µM), for inactives: at the top dose activity change, negative = inhibition, usual class: inhibitors | actives 0.93% (n = 48,000); active = well fitted inhibition curve with a large enough effect; inconclusive = small, poorly fitted or top-dose-only effect; inactive = no such curve, though single readings can be large or run the other way; also: nearly all actives have a fitted effect of over 50% in size
#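 Luminescence was read after Dual-Glo reagent and a 10 min room-temperature incubation. Values were normalized to vehicle (0% activity) and zero RLU (-100% activity). Reporter HEK293 cells had been exposed to compounds (up to 57.5 uM final) for 24 h.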
# Active calls of the source: *; ? = inconclusive; . = no result given; & = joins results of further samples; [ ] = another dose, or the depositor's remark. Potency is read from the fitted curve at half-maximal effect. This is a subset, so the mix of outcomes need not match the whole.
SMILES,PMP22 txn,HTT promoter inh
COc1ccccc1Cn1c(CNS(=O)(=O)c2ccc(Cl)s2)nc2cccnc21,?,-12%
COc1ccc(C)cc1NC(=O)CSc1nc(=O)n(Cc2ccco2)c2c1CCC2,?,-24%
CCc1nn(C(C)C(=O)N2CCN(c3cccc(C(F)(F)F)c3)CC2)c(=O)c2cc3occc3n12 (configuration not stated),?,?
Cn1ncc2c(NCc3ccc(F)cc3)ncnc21,5%,-10%
COc1ccc(-c2cc(C(F)(F)F)nc(SCCC(=O)Nc3c(C)cccc3C)n2)cc1,?,-2%
COc1ccccc1CCNC(=O)C1CCN(c2nnc(-n3cccc3CNc3ccc(C)cc3)s2)CC1,?,?
COc1ccc(C(=O)Nc2nnc(SCc3cc(=O)c4cc(C)ccc4[nH]3)s2)cc1OC,-55%,7%
COc1ccc(N2CCN(S(=O)(=O)CCNC(=O)C(c3ccccc3)c3ccccc3)CC2)cc1,-9%,?
CC/C=C(\C(=O)N[C@@H]1C(=O)N2C(C(=O)OCOC(=O)C(C)(C)C)=C(COC(N)=O)CS[C@H]12)c1csc(N)n1,.,6%&9%
COc1ccc(S(=O)(=O)NCCSc2nnnn2-c2ccccc2)cc1OC,?,?
CC1=C(c2ccc(C)cc2)S(=O)(=O)N(Cc2ccc(C(=O)NCc3ccccc3)cc2)C1=O,-18%,?
CCOC(=O)c1c(NC(=O)c2ccc(OC)c(OC)c2)sc2c1CCCCC2,-26%,-1%
Cc1cc(C)c(Cn2c3ccccc3c3cnn(CC(=O)NCCCc4ccccc4)c(=O)c32)c(C)c1,8%,-24%
COc1ccccc1OCC(=O)Nc1c(C(=O)c2ccc(C)cc2)oc2ccccc12,-29%,-7%
Cc1cccc(NC(=O)CSc2nnc(-c3cccs3)o2)c1,6%,89%[activator]
Cc1ccc(Nc2c(-c3ccsc3)nc3c(C)cccn23)cc1,-19%,-8%
CCC(C)NC(=O)c1ccc2c(=O)n3c(nc2c1)CCCCC3 (configuration not stated),-1%,11%
COc1ccc(NC(=O)C2=CC(c3ccco3)=NS(=O)(=O)N2C)cc1OC,-9%,-10%
COc1ccc(S(=O)(=O)c2c(O)c(C)cc(NC(=O)c3ccccc3)c2C(C)C)cc1,-10%,-16%
COc1ccc(CNC(=O)c2c(Nc3ccc(OC)cc3OC)sc(C(=O)c3ccc(Cl)cc3)c2N)cc1,?,-30%

# One compound at a time, as listed above. Values in the order: PMP22 txn, HTT promoter inh
# `CC/C=C(\C(=O)N[C@@H]1C(=O)N2C(C(=O)OCOC(=O)C(C)(C)C)=C(COC(N)=O)CS[C@H]12)c1csc(N)n1` is listed as ., 6%&9%
# `COc1ccccc1Cn1c(CNS(=O)(=O)c2ccc(Cl)s2)nc2cccnc21` is listed as ?, -12%

# More compounds
SMILES,PMP22 txn,HTT promoter inh
Cc1ccn2c(c1)nc(=O)c1cc(S(=O)(=O)N3CCC(C)CC3)c(Cl)cc12,-8%,-10%
O=C1CC(c2nnc(Cc3ccc(F)cc3Cl)o2)CN1c1ccccc1 (configuration not stated),7%,-19%
COc1ccc(CC(=O)NCC(c2ccc(Cl)cc2)N2CCOCC2)cc1 (configuration not stated),?,-9%
O=C(NCCS(=O)(=O)N1CCN(c2ccccc2F)CC1)c1ccccc1C(F)(F)F,-3%,?
O=C(NCc1ccco1)C1CCN(C(=O)N2CCOc3ccc(Cl)cc32)CC1,-11%,-2%
CCOc1ccc(-c2cc3nc(C4CCN(C(=O)OC(C)(C)C)CC4)c(C(=O)Nc4cc(OC)ccc4OC)cn3n2)cc1,-16%,-31%
Cc1ccc(C(=O)N2CCc3cc(CNC(=O)c4ccccc4F)ccc32)cc1,-51%,?
Cc1nc(-c2ccc(Cl)cc2)sc1CCNC(=O)Cc1ccc(F)cc1,?,32µM*
Cc1cccc(NC(=O)C(c2ccccc2)N2Cc3ccccc3C2=O)c1C (configuration not stated),2%,-14%
CCNC(=O)c1cc2n(n1)CCCN(Cc1ccc(C)cc1)C2=O,2%,-14%
Cc1ccc(CCNC(=O)c2ccc(NC(=O)N3CC(C)Sc4ccccc43)cc2)cc1 (configuration not stated),-5%,-7%
COc1ccc(CNC(=O)C2CCN(Cc3nc(-c4ccc(Cl)cc4)oc3C)CC2)cc1,?,-4%
Cc1ccccc1NC(=O)CSc1nc2ccc(NC(=O)COc3ccccc3F)cc2s1,?,-14%
Cn1c(=O)c2c(nc(Oc3ccc(F)cc3)n2Cc2ccc(F)cc2)n(C)c1=O,?,-3%
CCn1cc2c(n1)-c1c(oc(C(=O)Nc3ccc(Br)cc3F)c1C)CC2,?,32%[activator]
COc1cccc(Oc2nc3c(c(=O)n(Cc4ccccc4F)c(=O)n3C)n2C)c1,-17%,34%[activator][11.5 µM]
COCCNC(=O)CCn1c(=O)c2cc(OC)c(OC)cc2n(CC(=O)Nc2ccccc2C)c1=O,-18%,-18%
CCC(CC)C(=O)Nc1ccccc1C(=O)OCc1cc(=O)n2nc(C3CCCCC3)sc2n1,?,-28%
CN(C)c1ccc(NC(=O)CSC2=Nc3ccccc3C3=NC(CC(=O)NCc4ccc5c(c4)OCO5)C(=O)N23)cc1 (configuration not stated),-54%,2%
O=C(COc1ccccc1)Nc1c(Cl)ccc2nsnc12,-2%,-32%
O=C(O)CCc1ccc(-c2cccs2)n1CC(=O)Nc1ccccc1C(F)(F)F,7%,-13%
CN(C)c1ccc(CNC(=O)C2CCN(S(=O)(=O)c3ccc4c(c3)oc(=O)n4C)CC2)cc1,-32%,-8%
Cc1cn(C)c(CC(=O)NCc2cccc(Cl)c2)c1C(=O)O,?,-12%
CC(=O)C(Sc1nc(-c2ccccc2Cl)nc2c1c(=O)n(C)c(=O)n2C)C(=O)N(C)C (configuration not stated),-24%,-10%
CCOc1ccccc1CNC(=O)c1oc2ccc3c(c2c1C)C(=O)CC(C)(C)O3,?,11%
COc1ccc(C2Sc3ccccc3NC3=C2C(=O)c2ccccc23)c(OC)c1OC (configuration not stated),7.3µM*,?
COc1ccc(CC(=O)NCc2nc3cccnc3n2Cc2ccc(F)cc2)cc1OC,-26%,-12%
COc1ccc(C2C(=O)c3ccccc3C2=O)cc1,.,11%
O=C(NCCOCCn1c(=O)oc2ccccc21)Nc1cccc(Cl)c1,-18%,-3%
Cc1ccc(C(=O)COC(=O)c2cccc(NC(=O)c3ccc(Cl)cc3Cl)c2)cc1,?,?
CCOC(=O)C1CCN(C(c2ccc(OCC)cc2)c2c(O)cc(C)n(CCOC)c2=O)CC1 (configuration not stated),8%,-13%
Cc1cccc(N(C)C(=O)CCS(=O)(=O)c2ccc3c(c2)n(C)c(=O)c(=O)n3C)c1,-22%,-13%
Cc1cccc(/C=C/c2onc(C)c2S(=O)(=O)N2CCC(C(=O)N3CCCCC3)CC2)c1,-9%,?
COc1ccccc1NC(=O)c1c(NCc2ccc(OC)c(OC)c2OC)sc2c1CCCC2,5µM*,?
Cc1ccc(C)c(NC(=O)c2ccc3c(O)c(S(=O)(=O)c4ccc(Cl)cc4)c(=O)[nH]c3c2)c1,0%,-6%
Cc1cc(C)cc(NC(=O)c2ccc3c(O)c(S(=O)(=O)c4ccccc4)c(=O)[nH]c3c2)c1,-12%,-1%
Cc1ccc(C)c(N2CCN(c3nccn4nc(-c5ccc(Br)cc5)cc34)CC2)c1,-64%,-3%
CC(C)Cn1cc(NC(=O)NCc2ccc(Cl)cc2)c2ccccc2c1=O,13%,-6%
COc1ccc(C)c2sc(N(Cc3cccnc3)C(C)=O)nc12,?,-31%
O=c1c2nncn2ccn1-c1ccc(F)c(F)c1,1%,-7%
CC1CC(OC(=O)C(O)c2ccccc2)CC(C)(C)N1C (configuration not stated),.,6%
COc1ccc(CNC(=O)c2ccc(CN3C(=O)C(C)=C(c4ccc(C)cc4)S3(=O)=O)cc2)cc1,-26%,-25%
COCCCNC(=O)c1sc2ncccc2c1-n1cccc1,-6%,13%
CCOCCCNC(=O)NC(C)c1c(-n2cccc2)sc2c1CCN(CC)C2 (configuration not stated),16µM*,-20%
O=C(Nc1ccc(F)cc1)[C@H](Cc1ccccc1)N1Cc2ccccc2C1=O,3%,-19%
CCOc1ccc(C(=O)Nc2cc(-c3ccccc3)no2)cc1,5%,31%[activator]
Cc1cccc(-c2noc(-c3ccc(NCc4ccco4)c([N+](=O)[O-])c3)n2)c1,-24%,24%
COC(=O)c1ccc(NC(=O)c2c(NCc3ccc(OC)c(OC)c3)sc3c2CCCC3)cc1,-9%,?
O=C(Nc1c(Cl)cccc1Cl)c1cccc2c1C(=O)N(C1CCCCC1)C2,-28%,-2%
COc1cc(NC(=O)CN2C(=O)C(c3ccc(Cl)cc3)=NC23CCCCC3)cc(OC)c1,?,?
Cc1ccc(NC(=O)CSc2nc3ccccc3nc2N2CCOCC2)cc1,4%,?
Cc1cccc(CSc2nnc(CCCCCN)o2)c1,3%,?
Cn1c(SCc2ccc(F)cc2)nc2ccc(C(=O)NCc3ccccc3)cc21,?,?
O=C(CSc1oc(-c2ccccc2)nc1S(=O)(=O)c1ccc(Br)cc1)NC1CCCCC1,?,-16%
Cc1cc(-c2ccc(C)c(S(=O)(=O)N3CCC(C)CC3)c2)on1,?,?
CCOc1ccc(CNC(=O)c2oc3c(c2C)-c2nn(Cc4cccc(Cl)c4)cc2CC3)cc1,?,?
CCCC(CCC)C(=O)O,.,-22%&-5%
O=C(C1CCC(CNS(=O)(=O)c2cccs2)CC1)N1CCN(c2ccc(Cl)cc2)CC1 (configuration not stated),?,4µM*
CCCC(CCC)C(=O)NC1CC(=O)N(c2ccc3c(c2)OCCO3)C1 (configuration not stated),13%,-17%
COc1cccc(C(=O)Nc2ccc3nc(SCC(=O)N(C)c4ccccc4)sc3c2)c1,?,?

# Some of the entries above, reformatted:
mol | PMP22 txn | HTT promoter inh
COC(=O)c1ccc(NC(=O)c2c(NCc3ccc(OC)c(OC)c3)sc3c2CCCC3)cc1 | -9% | ?
O=C(Nc1c(Cl)cccc1Cl)c1cccc2c1C(=O)N(C1CCCCC1)C2 | -28% | -2%
COc1cc(NC(=O)CN2C(=O)C(c3ccc(Cl)cc3)=NC23CCCCC3)cc(OC)c1 | ? | ?
Cc1ccc(NC(=O)CSc2nc3ccccc3nc2N2CCOCC2)cc1 | 4% | ?
Cc1cccc(CSc2nnc(CCCCCN)o2)c1 | 3% | ?
Cn1c(SCc2ccc(F)cc2)nc2ccc(C(=O)NCc3ccccc3)cc21 | ? | ?

# Continued.
SMILES,PMP22 txn,HTT promoter inh
CC(=O)c1ccc(NC(=O)CC2Sc3ccccc3NC2=O)cc1 (configuration not stated),4%,-8%
O=C(Nc1ccccc1C(F)(F)F)c1ncoc1-c1ccco1,?,?
COCCc1nn2c(=O)cc(COC(=O)c3ccco3)nc2s1,-32%,-5%
Cc1csc2nc(-c3ccc(NS(=O)(=O)c4cc(F)ccc4F)cc3)cn12,-5%,-21%
Cc1ccccc1NC(=O)N1CCc2cc(S(=O)(=O)N3CCC(C)CC3)ccc21,?,-11%
CON=C(C(=O)N[C@@H]1C(=O)N2C(C(=O)OCOC(=O)C(C)(C)C)=C(C=Cc3scnc3C)CS[C@H]12)c1csc(N)n1,.,9%
Cc1c(NC(=O)c2cc([N+](=O)[O-])ccc2N2CCOCC2)cccc1-c1nc2ccccc2o1,-67%,-17%
Cc1nc2ccn(Cc3cccnc3)c(=O)c2cc1C(=O)NCc1ccc(Cl)cc1,-4%,?
COc1ccc(C(=O)N2c3ccccc3C(C)(c3ccc(Cl)cc3)CC2(C)C)cc1 (configuration not stated),?,?
CCOCc1cc(CN2CCN(c3cccc(C(F)(F)F)c3)CC2)c(O)c2ncccc12,4.5µM*,?
CCOC(=O)c1cc(-c2ccccc2)n(CCC(=O)Nc2ccc(C)cc2Cl)c1C,2%,?
CCC(=O)N1CCc2cc(S(=O)(=O)NC(Cc3ccccc3)C(=O)NCc3cccc(OC)c3)ccc21 (configuration not stated),-5%,-19%
COc1ccc(OC)c(C2CC(=O)Nc3c2c(=O)n(C)c2ncnn32)c1 (configuration not stated),-8%,-2%
COCCNC(=O)Cn1c(=O)n(Cc2ccc(C(=O)NCCc3ccc(OC)c(OC)c3)cc2)c(=O)c2ccccc21,-1%,-7%
CCn1c(=N)c(C(=O)NC2CCCCC2)cc2c(=O)n3cccc(C)c3nc21,?,-8%
CCOc1ccc(N(Cc2ccccc2)C(=O)c2nc(SC)ncc2Cl)cc1,?,?
Cc1ccc(-n2ncc3c(NCc4ccccc4)ncnc32)cc1C,?,12%
CCc1ccccc1NC(=O)CSc1nnc(-c2ccc(OC)cc2)s1,-2%,4%
COc1cccc(Cn2cc(C(=O)c3ccc(Cl)cc3)c(=O)c3ccccc32)c1,?,?
Cc1ccc2nc(NC(=O)COc3ccc(F)cc3)sc2c1,2%,10%
CCc1cccc(CC)c1NS(=O)(=O)c1ccc2c(c1)CCN2C(=O)C1CC1,11%,-22%

# Already shown: 2 of the compounds above.
SMILES,PMP22 txn,HTT promoter inh
CC(=O)c1ccc(NC(=O)CC2Sc3ccccc3NC2=O)cc1 (configuration not stated),4%,-8%
O=C(Nc1ccccc1C(F)(F)F)c1ncoc1-c1ccco1,?,?
